# Screening data (PubChem)
# 2A Renilla = Primary qHTS Assay for Foot and Mouth Disease Virus Antivirals against NCGC Sytravon and CBC Compound Libraries: Renilla Luciferase Signal; HEK cells with a luciferase reporter of 2A StopGo recoding; Potency, µM (series often up to 57.5 µM), without a hit: top-dose signal change, negative = less light; actives 0.32% (n = 120,000); AID 1745857, 2022; active means well fitted falling curve with a large enough effect; inconclusive means small, poorly fitted or top-dose-only effect; inactive means no such curve, though single readings can be large or run the other way; note: nearly all actives have a fitted effect of over 55% in size; overnight with compound
# 2A firefly = Primary qHTS Assay for Foot and Mouth Disease Virus Antivirals against NCGC Sytravon and CBC Compound Libraries: Firefly Luciferase Signal. HEK cells with a luciferase reporter of 2A StopGo recoding. Potency, µM (doses to about 57.5 µM), inactives show at the highest dose signal change, negative = less light. actives 0.23% (n = 120,000). AID 1745856, 2022; active = well fitted falling curve with a large enough effect; inconclusive = small, poorly fitted or top-dose-only effect; inactive = no such curve, though single readings can be large or run the other way; note: nearly all actives have a fitted effect of over 60% in size; overnight with compound
# Starred values were filed as active, the others as inactive; ? = inconclusive; [ ] = dose if it differs, or a comment. % is set by controls: 0 for no effect and ±100 for the full control effect; potency is the fitted concentration of half-maximal effect. Not all compounds are listed; count on the stated rates, not on these rows.
# Each structure is followed by: 2A Renilla | 2A firefly
COc1ccc(C(=O)Nc2oc3ccc(Cl)cc3c(=O)c2-c2ccc3c(c2)OCO3)cc1
 : 0% | 17%
CCCc1c(C)nc(N2CCN(CC)CC2)[nH]c1=O
 : -10% | -7%
CC(C)(CNC(=O)c1nccnc1N)c1ccc(Br)cc1
 : 6% | 8%
Cc1csc(NC(=O)C(C)Sc2nnc(-c3ccco3)n2CC(C)C)n1 (centres undefined)
 : 13% | -10%
O=C(O)c1ccc(-c2ccc(F)cc2)cc1
 : -5% | 178%[activator]
COCCCNC(=O)C1CCN(c2ncnc3c2nc2n3CCCCC2)CC1
 : -5% | 8%
COc1ccc(C2=NN(CC(=O)NCCCN(C)c3ccccc3)C(=O)CC2)cc1
 : 1% | -10%
COC(=O)c1cc(NC(=O)Nc2ccc3snnc3c2)cc(C(=O)OC)c1
 : -5% | -15%
Cc1ccc(N2CCN(S(=O)(=O)c3cc(C(=O)Nc4cc(Cl)cc(Cl)c4)ccc3F)CC2C)cc1 (centres undefined)
 : 18% | -13%
CCCCc1nnc2sc(-c3ccc(OC)c(OC)c3)nn12
 : 51%[activator] | 66%[activator]
Cc1nn2c(=O)cc(CN3CCN(c4ncccn4)CC3)nc2s1
 : -7% | 0%
Cn1c(Cc2cccs2)nnc1SCC(=O)N1CCN(c2ncccn2)CC1
 : 6% | 3%
COc1ccc(OC)c(CNC(=O)c2cc3c(=O)oc4ccc(C)cc4c3s2)c1
 : -8% | -9%
COc1ccc(-c2[nH]c(-c3ccc(OC)c(OC)c3)nc2SCC(=O)Nc2ccccc2)cc1
 : 66%[activator] | 5%
COc1ccccc1CCNC(=O)C(=O)NCC(c1ccc2c(c1)OCO2)N1CCOCC1 (centres undefined)
 : 3% | -21%
CC(C)(C)c1ccc(C(=O)NCCNC(=O)c2nc3ccccc3c(=O)[nH]2)cc1
 : -11% | 6%
CCOCCCNc1nc2c(S(=O)(=O)c3ccc(CC)cc3)nnn2c2ccc(Cl)cc12
 : -5% | -7%
CCCCN(C)S(=O)(=O)c1cc(-c2nn(C)c(=O)c3ccccc23)ccc1C
 : 94%[activator] | ?
CCSC1=Nc2c(cnn2-c2ccc(C)c(Cl)c2)C2=NCCCN12
 : -2% | -1%
COc1ccc(Oc2coc3cc(OC(=O)c4cc(OC)c(OC)c(OC)c4)ccc3c2=O)cc1
 : 13% | 58%[activator]

# Structures listed so far containing a halogen, in the order listed:
# Each structure is followed by: 2A Renilla | 2A firefly
COc1ccc(C(=O)Nc2oc3ccc(Cl)cc3c(=O)c2-c2ccc3c(c2)OCO3)cc1
 : 0% | 17%
CC(C)(CNC(=O)c1nccnc1N)c1ccc(Br)cc1
 : 6% | 8%
O=C(O)c1ccc(-c2ccc(F)cc2)cc1
 : -5% | 178%[activator]
Cc1ccc(N2CCN(S(=O)(=O)c3cc(C(=O)Nc4cc(Cl)cc(Cl)c4)ccc3F)CC2C)cc1 (centres undefined)
 : 18% | -13%
CCOCCCNc1nc2c(S(=O)(=O)c3ccc(CC)cc3)nnn2c2ccc(Cl)cc12
 : -5% | -7%
CCSC1=Nc2c(cnn2-c2ccc(C)c(Cl)c2)C2=NCCCN12
 : -2% | -1%

# Additional entries.
# Each structure is followed by: 2A Renilla | 2A firefly
COCCNC(=O)Cn1ccc2cc(Cl)ccc21
 : 5% | 31%
CCCCOc1ccccc1C1CC(=O)Nc2cc(C)c(C)cc21 (centres undefined)
 : -6% | 23%
Cc1cccc(C(=O)NCCCN(C)CC(F)(F)F)n1
 : -8% | -1%
COc1ccc(CNC(=O)c2cnn3c(C)c(Cc4c(F)cccc4Cl)c(C)nc23)cc1
 : 8% | -26%
C=C(C)CNC(=S)N/N=C/c1ccsc1
 : 24% | -2%
CCCCc1nn2c(=O)cc(COC(=O)c3cccc(OC)c3)nc2s1
 : -10% | -3%
O=C(CS(=O)(=O)Cc1coc(-c2cccc(F)c2)n1)NC1CCCCCC1
 : -14% | -9%
CCOC(=O)c1sc(N2C(=O)c3oc4ccc(F)cc4c(=O)c3C2c2ccc(O)cc2)nc1C (centres undefined)
 : -8% | -13%
Cc1nn(C)cc1C1SCC(=O)Nc2c1c(C)nn2-c1ccccc1 (centres undefined)
 : 4% | -2%
CC(C)CNC(=O)NCC(=O)N1CCc2ccccc21
 : 21% | 0%
O=C(Cc1c[nH]c2ccccc12)OC/C=C/c1ccccc1
 : -6% | -11%
COc1ccc(OC)c(CCNC(=O)c2c(C)nn(-c3ccc(F)cc3)c2-n2cccc2)c1
 : -9% | -14%
CCCc1cc(=O)oc2cc(C)c3c(-c4ccccc4)c(C)oc3c12
 : -6% | -8%
Cc1ccc(N)c2cccnc12
 : 5% | 30%[activator]
Cc1onc(-c2c(F)cccc2Cl)c1C(=O)OCC(=O)C(C)(C)C
 : 20% | 24%
COCCn1c(SCC(=O)c2cc(C)n(C)c2C)nnc1-c1ccc(Cl)cc1
 : 15% | -12%
COc1ccc(CCC(=O)OCC(=O)c2cccc(Br)c2)cc1OC
 : 2% | -10%
Clc1cccc(-n2cc(-c3ccccc3)c3c(N4CCCCC4)ncnc32)c1
 : -9% | -20%
COC(=O)c1cc2occc2n1CC(=O)Nc1ccc(C)cc1Cl
 : ? | ?
Cn1c(=O)c2c(ncn2CC(=O)N(c2ccccc2)C2CCCCC2)n(C)c1=O
 : -4% | -3%
CCCc1nnc(NC(=O)NCC(O)c2ccc(F)cc2)s1 (centres undefined)
 : 7% | 20%
CCOc1ccc(CNC(=O)C2CCN(C(=O)N3CC(CC)Oc4ccc(C)cc43)CC2)cc1OC (centres undefined)
 : -1% | -25%
Brc1ccc(-c2noc(/C=C/c3ccccc3)n2)cc1
 : 11% | -18%
COc1ccc(S(=O)(=O)N(C)C)cc1NC(=O)CSc1nnc2ccccn12
 : -1% | -3%
O=C(O)c1cc(Cl)c(Br)c(Cl)c1
 : -6% | -3%
CC(C)c1ccc(C2c3c(-c4ccccc4O)n[nH]c3C(=O)N2Cc2ccncc2)cc1 (centres undefined)
 : 92%[activator] | -16%
CCOC(=O)c1ccc(NC(=O)CC2Sc3ccc(C(F)(F)F)cc3NC2=O)cc1 (centres undefined)
 : -7% | -13%
CC(=O)Nc1ccc(C)cc1S(=O)(=O)N1CCCCCC1c1sccc1C (centres undefined)
 : 105%[activator] | 21%
Cc1cc(C(=O)O)c(C)[nH]1
 : 0% | 6%
CN(C(=O)COC(=O)c1ccc(F)cc1)c1ccccc1
 : 0% | 5%
Cc1oc(-c2ccccc2)nc1CN1C(=O)CSc2ccc(S(=O)(=O)N3CCCCCC3)cc21
 : -6% | -2%
CCOc1ccc(C2C(C(=O)Nc3ccccc3C)=C(C)Nc3nnnn32)cc1 (centres undefined)
 : -19% | -24%
O=C(Nc1ccccc1Br)N1CCN(S(=O)(=O)c2ccccc2)CC1
 : 4% | 11%
CCOc1ccccc1NC(=O)C1CCCN1C(=O)C12CC3CC(CC(C3)C1)C2 (centres undefined)
 : 32%[activator] | 1%
CC(C(=O)Nc1cc(C(F)(F)F)ccc1Cl)n1nnc2sc3c(c2c1=O)CCCC3 (centres undefined)
 : -16% | -12%
COc1ccc(-c2nc(CS(=O)CC(=O)NCCc3ccccc3)c(C)o2)cc1OC (centres undefined)
 : -13% | 9%
O=C(Nc1ccc2c(c1)OCO2)c1cc(-c2ccc(Br)cc2)on1
 : -7% | 13%
CCc1ccc(NC(=O)C2(c3cccs3)CCOCC2)cc1
 : 4% | 4%
Cc1oc(-c2nc(C#N)c(N(C)C)o2)cc1S(=O)(=O)N(C)Cc1ccccc1
 : 0% | 0%
O=C(NCc1ccccc1Cl)C1CCCN(C(=O)c2cnn(-c3ccc(F)cc3)c2-n2cccc2)C1 (centres undefined)
 : 4% | -1%
COc1cc(NC(=O)c2cc3ccccn3n2)cc(OC)c1OC
 : 16% | 72%[activator]
O=C(CSCc1ccccc1)c1ccc[nH]1
 : 27% | 179%[activator]
COc1ccc(NC(=O)c2cc(=O)c3cc(C)ccc3o2)cc1
 : -7% | 25%
Cc1ccccc1-c1nnc(SCC(=O)Nc2nncs2)n1C
 : -3% | -7%
CCc1cccc(NC(=O)C2CCCN2S(=O)(=O)c2ccc3c(c2)n(C)c(=O)c(=O)n3C)c1 (centres undefined)
 : -6% | 2%
CCCCn1cc(S(=O)(=O)c2ccc(OC)cc2)c(=O)c2cc(F)c(N3CCCC3)cc21
 : 109%[activator] | 66%[activator]
COc1ccc(CCNC(=O)C(C)n2nc(C)c3sc4ccccc4c3c2=O)c(OC)c1 (centres undefined)
 : 13% | 0%
CCn1c(CSc2n[nH]c(-c3ccc(OC)cc3)n2)nc2cc(S(=O)(=O)N(C)C)ccc21
 : 23% | 40%[activator]
CCN(CC)CCNC(=O)c1sc2ncccc2c1-n1c(C)ccc1C
 : -8% | -12%
CC1CCc2nc(/C(C#N)=C\c3ccco3)sc2C1 (centres undefined)
 : 11% | 63%[activator]

# Carrying on:
# Each structure is followed by: 2A Renilla | 2A firefly
CC(C)C(OC(=O)/C=C/c1ccc(C(F)(F)F)cc1)C(=O)NC(N)=O (centres undefined)
 : -1% | 11%
COc1ccc(-c2noc(COc3cc(C)c(Br)c(C)c3)n2)cc1OC
 : -9% | -16%
COc1ccc(Cc2cn(C)c(N)n2)cc1
 : 11% | 100%[activator]
Cc1ccc(S(=O)(=O)Nc2nc3n(n2)C(c2ccccc2Cl)C=C(c2ccccc2)N3)cc1 (centres undefined)
 : -5% | -9%
CCOc1ccccc1NC(=O)C(C)Sc1nc(-c2ccccc2)c(C#N)c(=O)[nH]1 (centres undefined)
 : -4% | -6%
COc1c(N2CCNC(C)C2)c(F)cc2c(=O)c(C(=O)O)cn(C3CC3)c12 (centres undefined)
 : -12% | -18%
Cc1sc(C)c(CNc2ccccc2)c1CNc1ccccc1
 : 1% | 42%[activator]
CCn1c(SCc2ccccc2)nnc1-c1nonc1NC(C)=O
 : 20% | 1%
COc1ccc(NC(=O)c2ccc(Br)o2)cc1NC(=O)c1cccc(C)c1
 : 45%[activator] | 40%[activator]
COc1ccccc1-c1noc(CSc2nc(C3CC3)n(-c3ccccc3)n2)n1
 : -8% | -5%
N#CC1(NC(=O)CSc2nccn2C2CC2)CCCCCC1
 : 1% | -7%
CC(=O)Nc1ccc(NC(=O)CCn2cnc3c2c(=O)n(C)c(=O)n3C)cc1
 : -10% | 2%
CCOP(=O)(OCC)c1nc(Cc2ccc(Cl)cc2)oc1NCc1ccc2c(c1)OCO2
 : 28% | -2%
Cc1cc(C)c(O)c(NC(=O)Cc2nn(C)c(=O)c3ccccc23)c1
 : ? | ?
COc1ccc(CNc2nc3c(c(=O)[nH]c(=O)n3C)n2Cc2cccc(C)c2)cc1
 : -2% | 5%
CN1CCC/C1=C\C(=O)c1ccccc1
 : 25% | 93%[activator]
O=C(NCc1ccccc1)c1ccc(C2Nc3ccccc3S(=O)(=O)N2)cc1 (centres undefined)
 : 7% | 21%
O=C(Nc1ccc2oc(-c3ccncc3)nc2c1)c1ccc2ccccc2c1
 : -1% | 8%
N#Cc1ccccc1Sc1ccccc1C(=O)OCC(=O)c1ccc2c(c1)OCCO2
 : ? | ?
CCN(CC)Cc1ccc(CNC(=O)c2c(C)[nH]c3ccccc23)cc1
 : -11% | -5%
CCOc1ccc(C(=O)Nc2cccc(-c3nc4ccccc4o3)c2)cc1[N+](=O)[O-]
 : -10% | 7%
COc1cc(C(=O)N2CCC(N3CCCCC3)CC2)cc(OC)c1C
 : -15% | -11%
COc1cccc2c(C(C(=O)O)N3CCN(C(=O)OC(C)(C)C)CC3)c[nH]c12 (centres undefined)
 : -3% | -25%
CCSc1nnc2c(n1)OC(c1ccc(OC)cc1OC)N(C(C)=O)c1ccccc1-2 (centres undefined)
 : 47%[activator] | -16%
CCCS(=O)(=O)Nc1cc(-c2cn3cccc(C)c3n2)ccc1C
 : 31%[activator] | 213%[activator]
OCCNc1nc(-c2ccsc2)nc2ccccc12
 : -8% | 8%
CCCCN(CC)CCCNC(=O)C1CCCN(c2ncnc3c2nc2n3CCCCC2)C1 (centres undefined)
 : -5% | -7%
CCCCn1c(=N)c(C(=O)NC2CCCCC2)cc2c(=O)n3cccc(C)c3nc21
 : 3% | -9%
CCOC(=O)C(CC)n1nc(C)c2c(C)n(-c3ccc(C)cc3)nc2c1=O (centres undefined)
 : 5% | 24%
O=C(CSCc1ccc([N+](=O)[O-])cc1)N/N=C/c1ccco1
 : 11% | 24%
O=C(Nc1ccc(Cl)cc1)NC1CCSc2ccccc21 (centres undefined)
 : 0% | 50%[activator]
CCc1cc(=O)oc2cc(C)cc(OC(C)C(=O)NCCCN3CCOCC3)c12 (centres undefined)
 : -9% | -6%
O=C(CSc1cn(Cc2ccc(F)cc2)c2ccccc12)N1CCCc2ccccc21
 : 0% | -23%
CCOC(=O)c1c(NC(=O)c2c(-c3ccccc3)noc2C)sc2c1CCC2
 : -3% | 11%
FC(F)(F)c1ccc2c(c1)nc(-c1ccc(Cl)cc1)c1nccn12
 : 0% | -7%
Cn1cnc2c1c(=O)n(CC(=O)NCc1cccc(Cl)c1)c(=O)n2C
 : -15% | 10%
COc1ccc(C)cc1Nc1nc(N)c(C(=O)c2ccc(Br)cc2)s1
 : -24% | -9%
O=C(NCCCN1CCCC1)c1ccc(-c2ccccc2)cc1
 : -2% | 15%
CCOc1ccccc1CNC(=O)C1CCN(S(=O)(=O)c2ccc3[nH]c(=O)ccc3c2)CC1
 : -3% | 0%
C=Cc1ccc(Cn2c(C)c(CNCCc3cc(OC)ccc3OC)c(C(=O)O)c2C)cc1
 : 1% | -16%
